# E coli growth: E. coli growth inhibition, primary screen, OD600 | Escherichia coli growth, 23 h; hits give low values | 0.21% of 330,000 active | OD600 absorbance (concentration not given with the values) | AID 1053175, 2014;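 active = OD600 absorbance below the run mean of sample wells minus 3.6 SD, in any replicate, cut at about 0.56 in these data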;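 also: stock transfer was 300 nL into about 60 µL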
# UCH37 DUB inh: inhibitors of human UCH37 deubiquitinase, primary screen, biochemical, Ub-AMC cleavage, fluorescence; Ubiquitin carboxyl-terminal hydrolase isozyme L5 (Homo sapiens), Q9Y5K5; purified proteasome/UCH37; 0.33% of 330,000 active; inhibition, % (test concentration not listed);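 active = mean of two replicates above 20%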;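 also: 0% = compound-free wells with enzyme and 100% = wells lacking proteasome; stock transfer was 100 nL into about 20 µL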
# Target sequence (Q9Y5K5 whole entry, looked up): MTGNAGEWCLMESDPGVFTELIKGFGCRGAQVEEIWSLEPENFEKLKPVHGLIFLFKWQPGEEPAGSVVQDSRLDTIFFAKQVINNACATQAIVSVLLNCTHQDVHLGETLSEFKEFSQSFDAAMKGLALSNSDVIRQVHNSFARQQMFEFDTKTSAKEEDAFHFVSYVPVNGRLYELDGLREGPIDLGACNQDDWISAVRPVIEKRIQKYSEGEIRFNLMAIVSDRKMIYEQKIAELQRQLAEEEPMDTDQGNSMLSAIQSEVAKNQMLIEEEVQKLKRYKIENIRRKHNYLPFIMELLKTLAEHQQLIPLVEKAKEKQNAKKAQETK
#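 System: Proteasome-associated human UCH37 deubiquitinase; Input: 0.15 nM proteasome in added enzyme buffer; Also added: Ub-AMC substrate from 1 µM stock; Incubation: 30 min compound-proteasome preincubation then 25 min substrate reaction, room temperature; Detection: fluorescence, ex 355 nm, em 460 nm; Read-out: % inhibition of Ub-AMC cleavage fluorescence; Benchmarks: no-proteasome and no-compound wells.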
# HNF4A DNA FP: change in binding of human HNF4A to DNA, primary screen, biochemical, fluorescence polarization, FITC-DNA; 0.3% of 360,000 active; 1 h; AID 1224865, 2016; activity change, % at 10 µM; in the data active = activity change above about 30%, passing the limit was not always enough;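 also: controls were the assay level and a saturating level of protein; the project sought stronger binding though the title names inhibitors; some compounds called inactive have numbers as strong as hits; positive values seem to mean higher polarization but the record does not say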
# B2AR ag: beta2AR agonists driving receptor internalization, primary screen, cell-based, FAP fluorogen, flow cytometry | Am2.2-beta2AR cells; reference of the scale not given here | AID 504454, 2011 | 0.43% of 340,000 active | response, % (test concentration not listed) | Beta-2 adrenergic receptor (Homo sapiens), P07550;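 active = response above a set limit, near 3 SD of response in nonfluorescent compounds, cut at about 42% in these data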;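 also: stock transfer was 100 nL into about 11 µL; a reference agonist was the positive control; negative values mostly stem from fluorescent compounds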
# FGF22 binding: binders of human FGF22 protein, primary screen, FGF22 synaptogenesis inhibitor project, biophysical, thermal shift, single point; 1.5% of 340,000 active; calls only at 9.99 µM; Fibroblast growth factor 22 (Homo sapiens), Q9HCT0; recombinant FGF22 thermal shift, SYPRO orange fluorescence; percent of sucrose octasulfate shift, DMSO zero;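 active = melting point raised past a set limit in the mean and every replicate; three in four hits are not shown here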
# Target sequence (Q9HCT0 whole entry, looked up): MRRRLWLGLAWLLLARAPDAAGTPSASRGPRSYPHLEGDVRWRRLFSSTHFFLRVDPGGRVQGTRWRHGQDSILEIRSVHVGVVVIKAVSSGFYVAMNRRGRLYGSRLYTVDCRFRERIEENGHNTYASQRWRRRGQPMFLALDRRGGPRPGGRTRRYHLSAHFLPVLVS
# rRNA inh HTS: reduced GFP signal of wild-type E. coli, primary screen, bacterial rRNA inhibitor project, GFP/RFP fluorescence, OD600, single point; AID 720706, 2013; 1.6% of 350,000 active; E. coli WT GFP vs humanized-ribosome RFP mutants, 24 h; hits give low values; DMSO median 0, no signal -100; GFP signal change (wild-type ribosome), % (test concentration not listed);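 active = significant combined selectivity score with lowered wild-type GFP, culture density cut under 30%, mutant RFP and density less affected; inactive = any of these conditions unmet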; also: one replicate is shown; some compounds called inactive have numbers as strong as hits
# ALR inh: inhibitors of human ALR sulfhydryl oxidase, primary screen, biochemical, H2O2 detection, HRP-luminol luminescence, single point. FAD-linked sulfhydryl oxidase ALR (Homo sapiens), P55789. purified ALR, DTT oxidation. inhibition, % (no concentration beside the values). 3.8% of 290,000 active. AID 485317, 2010;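 active = mean and each replicate at 75% or more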;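 also: stock transfer was 7.5 nL into about 7.5 µL; 0% = neutral wells and 100% = wells with inactivated enzyme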
# rRNA inh HTS OD600: second read-out of rRNA inh HTS, no call of its own (marks repeat the call); OD600 change, %; measured here: OD600 growth;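 optical density of the mix in the first replicate; 0 = DMSO median and -100 = no signal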
# rRNA inh HTS RFP: recorded beside rRNA inh HTS, whose call it bears; RFP signal change, %; measured here: RFP humanized mutant strains;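 first replicate; 0 = DMSO median and -100 = no signal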
# * hit, by the source's call; i = inactive; . = no result given. Not all compounds are listed; count on the stated rates, not on these rows.
SMILES,E coli growth,UCH37 DUB inh,HNF4A DNA FP,B2AR ag,FGF22 binding,rRNA inh HTS,rRNA inh HTS OD600,rRNA inh HTS RFP,ALR inh
Cc1cccc(S(=O)(=O)NC(=O)C2(C)CCN2C(=O)Cc2ccc(Cl)cc2Cl)c1 (configuration not stated),.,.,-1.6,.,i,-4,4,-2.2,.
CN(C)C(CNC(=O)c1ccc(S(=O)(=O)Nc2ccccc2F)cc1)c1ccco1 (configuration not stated),0.63,-9.8,3.6,-6,i,3,7,1.8,-7
CCOc1ccc(C(=O)N2CCCN(C(=O)c3ccc(OCC)cc3)CC2)cc1,0.67,-0.8,2.9,-9,i,7,-6,-0.1,4
COc1cccc(NC(=O)[C@@H]2CCCN2C(=O)[C@@H]2Cc3ccccc3CN2C(=O)OC(C)(C)C)c1,0.71,3.1,2.2,3,i,-4,-6,-2.4,-6
Cc1cc(OCC(=O)Nc2cccc(S(=O)(=O)N3CCCCC3)c2)ccc1Cl,0.73,2.6,-1.1,2,i,-6,0,8.2,-2
O=C(NNC(=O)c1cc2c(s1)CCCC2)c1ccccc1,0.67,-0.1,0.0,1,i,4,4,0.2,-12
CC1(C)OC(C)(C)/C(=C/Nc2ccc(O)cc2)C1=O,0.64,11,-5.4,10,.,.,.,.,99*
COc1ccc(C(CNC(=O)c2ccc(OC)c(S(=O)(=O)N3CCCC3)c2)N2CCCC2)cc1 (configuration not stated),0.63,0.7,6.0,3,i,3,-1,0.5,-4
Cc1ccccc1NC(=O)CN1C(=O)NC2(CCc3ccccc32)C1=O (configuration not stated),0.69,3.1,0.0,-2,i,2,3,1.0,1
CCN1C(=O)c2ccc(C(=O)NCc3ccccc3)cc2C1=O,0.72,3.5,0.1,-7,.,.,.,.,-1
CC(C)c1ncc(C(O)c2ccccc2)n1C (configuration not stated),0.67,2.7,0.2,-8,i,6,0,0.3,-1
O=C(COC(=O)/C=C/c1ccco1)Nc1cc(S(=O)(=O)N2CCOCC2)ccc1Cl,0.65,2.1,-3.2,1,i,.,.,.,-3
CSc1ccc(Cn2c(C)c(C(=O)NCCC#N)sc2=O)cc1,.,.,0.9,.,i,5,-2,-1.8,.
CC(=O)Oc1ccc(/C=N/NS(=O)(=O)c2ccccc2)cc1,.,.,-2.8,15,i,20,17,2.8,29
CCCCN(CCCC)S(=O)(=O)c1ccc2oc(C(=O)N3CCOCC3)c(C)c2c1,0.69,4.9,0.2,3,.,.,.,.,-6
O=C(CCCn1c(=O)c2sccc2n(CC(=O)OCc2ccccc2)c1=O)NCc1ccco1,0.68,1.7,-2.1,6,.,.,.,.,-5
Cc1ccc(S(=O)(=O)N2CCOCC2)cc1NC(=O)CN1C(=O)NC(C)(c2ccc(Cl)cc2Cl)C1=O (configuration not stated),0.68,1.7,1.4,-3,i,.,.,.,-2
CC(=O)c1cc(C#N)c(N2CCOCC2)nc1C,0.69,5.1,-0.2,-12,i,3,2,3.7,-1
CC(C)(C)c1ccc(OCC(=O)NNC(=O)c2cccnc2)cc1,0.65,0.3,3.9,2,i,-3,-12,-2.9,3
CCc1cc(=O)oc2cc(OCc3nn[nH]n3)ccc12,0.73,-32,-0.1,-4,.,.,.,.,3

# In the list so far, these contain four or more nitrogen atoms.
SMILES,E coli growth,UCH37 DUB inh,HNF4A DNA FP,B2AR ag,FGF22 binding,rRNA inh HTS,rRNA inh HTS OD600,rRNA inh HTS RFP,ALR inh
Cc1ccc(S(=O)(=O)N2CCOCC2)cc1NC(=O)CN1C(=O)NC(C)(c2ccc(Cl)cc2Cl)C1=O (configuration not stated),0.68,1.7,1.4,-3,i,.,.,.,-2
CCc1cc(=O)oc2cc(OCc3nn[nH]n3)ccc12,0.73,-32,-0.1,-4,.,.,.,.,3

# (list continues)
SMILES,E coli growth,UCH37 DUB inh,HNF4A DNA FP,B2AR ag,FGF22 binding,rRNA inh HTS,rRNA inh HTS OD600,rRNA inh HTS RFP,ALR inh
COC(=O)c1nnn(CC(=O)NC(=O)Nc2ccccc2)c1C(=O)OC,0.67,4.5,-0.9,6,.,.,.,.,-32
COc1ccc(C(=O)Nc2nnc(-c3ccccc3)s2)cc1,0.67,-1.3,4.4,19,i,6,15,0.8,-1
CCNc1nc2c(c(=O)[nH]c(=O)n2C)n1CCCc1ccccc1,0.68,-0.6,1.6,-3,i,0,-1,-2.2,6
CN1C(=O)c2ccc(NC(=O)C3CC3)cc2C1=O,0.69,-295,1.5,1,i,9,11,2.7,-1
Cc1ccc(/C=C(\NC(=O)c2ccccc2)C(=O)NC2CCN(Cc3ccccc3)CC2)o1,0.64,6.7,2.9,1,i,.,.,.,7
CC1C=CCC2C(=O)N(c3cccc(C(=O)N4CCN(c5ccc(F)cc5)CC4)c3)C(=O)C12 (configuration not stated),0.71,4.5,0.7,-5,.,.,.,.,.
CS(=O)(=O)c1ccc(-c2nnn(CC(=O)N3CCCCC3)n2)cc1,0.73,7.3,2.0,5,i,1,6,-2.4,.
O=C(Nc1ccccc1)NC1(C(=O)N2CCN(c3ncccn3)CC2)CCCCC1,0.71,0.4,0.4,0,.,.,.,.,1
CC(=O)N1C(C(=O)O)CSC1c1ccc(C)cc1 (configuration not stated),0.73,-0.6,2.6,0,.,13,18,2.5,-4

# Three compounds out of the list, arranged by heavy-atom count, descending.
SMILES,E coli growth,UCH37 DUB inh,HNF4A DNA FP,B2AR ag,FGF22 binding,rRNA inh HTS,rRNA inh HTS OD600,rRNA inh HTS RFP,ALR inh
CC1C=CCC2C(=O)N(c3cccc(C(=O)N4CCN(c5ccc(F)cc5)CC4)c3)C(=O)C12 (configuration not stated),0.71,4.5,0.7,-5,.,.,.,.,.
O=C(Nc1ccccc1)NC1(C(=O)N2CCN(c3ncccn3)CC2)CCCCC1,0.71,0.4,0.4,0,.,.,.,.,1
CN1C(=O)c2ccc(NC(=O)C3CC3)cc2C1=O,0.69,-295,1.5,1,i,9,11,2.7,-1

# Screening data from PubChem.
